# hNpr1 antagonist = antagonists of human natriuretic peptide receptor Npr1; P16066; HEK293 hNpr1 GloSensor cGMP, ANP-stimulated luminescence; Potency, µM (doses to about 46.3 µM), for inactives: at the top dose activity change, negative = inhibition, actives largely listed as inhibitors; actives 1.6% (n = 76,000); AID 1347048; active = well fitted inhibition curve with a large enough effect; inconclusive = small, poorly fitted or top-dose-only effect; inactive = no such curve, though single readings can be large or run the other way;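 note: nearly all actives have a fitted effect of over 60% in size; nearly all hits also lower the signal before the agonist is added; a reference antagonist and vehicle were the controls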
# Target sequence (P16066 whole entry, looked up): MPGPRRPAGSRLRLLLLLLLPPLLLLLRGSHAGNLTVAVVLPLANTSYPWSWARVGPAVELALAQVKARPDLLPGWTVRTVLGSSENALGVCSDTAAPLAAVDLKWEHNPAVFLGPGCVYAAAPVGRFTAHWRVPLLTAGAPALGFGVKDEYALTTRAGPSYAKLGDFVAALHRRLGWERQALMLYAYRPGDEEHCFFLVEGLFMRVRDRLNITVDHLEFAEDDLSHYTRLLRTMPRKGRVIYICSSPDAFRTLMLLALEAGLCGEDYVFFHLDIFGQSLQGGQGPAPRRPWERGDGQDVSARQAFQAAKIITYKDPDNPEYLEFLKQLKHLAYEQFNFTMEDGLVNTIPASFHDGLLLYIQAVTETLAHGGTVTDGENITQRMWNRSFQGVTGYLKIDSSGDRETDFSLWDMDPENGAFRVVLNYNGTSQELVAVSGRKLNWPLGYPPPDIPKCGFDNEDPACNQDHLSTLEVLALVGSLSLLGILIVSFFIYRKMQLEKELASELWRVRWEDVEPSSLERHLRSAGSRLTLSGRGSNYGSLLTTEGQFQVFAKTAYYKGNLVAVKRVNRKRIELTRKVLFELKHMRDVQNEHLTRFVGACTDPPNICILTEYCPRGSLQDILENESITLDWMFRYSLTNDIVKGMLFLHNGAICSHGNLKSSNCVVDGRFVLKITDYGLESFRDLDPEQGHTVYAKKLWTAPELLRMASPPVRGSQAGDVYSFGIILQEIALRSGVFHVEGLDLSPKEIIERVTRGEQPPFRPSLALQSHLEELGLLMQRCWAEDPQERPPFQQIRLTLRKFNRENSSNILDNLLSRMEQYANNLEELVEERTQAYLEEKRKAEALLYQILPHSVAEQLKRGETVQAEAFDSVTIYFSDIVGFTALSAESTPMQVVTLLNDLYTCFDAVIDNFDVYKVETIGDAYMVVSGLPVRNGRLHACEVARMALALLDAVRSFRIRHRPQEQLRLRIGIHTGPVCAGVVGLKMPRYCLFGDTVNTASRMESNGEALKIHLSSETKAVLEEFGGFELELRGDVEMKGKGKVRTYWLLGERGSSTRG
#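 HEK293 cells stably expressing human Npr1 and cGMP GloSensor pGS-40F, loaded 2 h with 2% GloSensor reagent, given compound 30 min at room temperature. Luminescence read before and 20 min after 0.1 nM hNppA.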
# An asterisk follows results filed as active; ? = inconclusive; & = joins results of further samples; [ ] = another dose, or the depositor's remark. % is set by controls: 0 for no effect and ±100 for the full control effect; potency is the fitted concentration of half-maximal effect. A portion of the library; the hit share may differ from the screen's.
SMILES,hNpr1 antagonist
CCOc1ccc(C2NC(=O)N(CC(=O)NCCc3cccs3)C3=C2C(=O)OC3)cc1 (centres undefined),-1.1%
O=C(Nc1cccc(-c2nnc3n2CCCC3)c1)c1cc(F)ccc1F,1.5%
O=C([C@@H]1C[C@H](F)CN1S(=O)(=O)c1ccc(Cl)s1)N1CCCCC1,-4.0%
Cc1cccc(-c2nc3cc(C)ccc3cc2CN2CCN(CCCO)CC2)c1,-1.6%
CCCN1CCC(N2C[C@@H](CO)[C@H](c3nc(COC)no3)C2)CC1,5.7%
C[C@@H](NS(=O)(=O)c1ccccc1)c1onc(-c2ccc(Cl)cc2)c1C(=O)O,3.0%[70.6 µM]
CC(C)N1C[C@H](O)C[C@H]1c1nnc2n1CCN(C(=O)c1cccnc1)CC2,1.0%
CC(=O)N1CCN(c2ncnc3c2CN(c2ccccc2C)C(=O)CN3C)CC1,-10.8%
CCCc1noc(-c2cn(C3CCN(C(=O)c4ccc(OC)c(OC)c4)CC3)nn2)n1,-19.3%
Cc1ccc(CN2CC3(COCC2=O)CN(c2cnccn2)C3)cc1C,4.0%[70.6 µM]
CN1CCN(Cc2nc(C3(O)CCN(C(=O)CC(C)(C)C)CC3)cs2)CC1,1.3%[70.6 µM]
COC[C@@H]1CN(C(=O)Cc2ccccc2Cl)C[C@H]1C(N)=O,-0.8%
CC(=O)c1ccc(NC(=O)O[C@@H]2CO[C@H]3[C@@H]2OC[C@@H]3NC(=O)NCc2ccccc2)cc1,-9.6%
O=C1CC(c2ccccc2)N(Cc2ccncc2)CCCN(C(=O)C2CCCCC2)CCN1 (centres undefined),1.9%
COCCNC(=O)c1cc(Br)cn2ccnc12,27.6%&3.8%[70.6 µM]
N#Cc1ccc(C(=O)Nc2ccc3ncnc(N4CCCCC4)c3c2)cc1,-14.2%
CC(=O)c1ccc(NC(=O)Cn2ccn3nc(-c4ccc(F)cc4)c(CO)c3c2=O)cc1,0.9%
O=C(Cn1nc2c(cc1=O)CCCCC2)NCCCc1nnc2ccccn12,-2.0%
CCOc1cc(C(=O)N2CCC(Cc3nc(-c4cnccn4)no3)CC2)cc(OCC)c1OCC,-2.9%
Cc1c(Cl)cccc1NC(=O)N1CCC(Oc2ncccc2C(=O)N2CCOCC2)C1 (centres undefined),0.9%
COC(=O)[C@H](Cc1ccc(OC)cc1)NC(=O)[C@H]1CN(S(=O)(=O)c2ccccc2)CCN1S(=O)(=O)c1ccccc1,-3.2%
COc1ccc(CN2C=C(C(=O)OCc3c(C)noc3C)C(C)=NS2(=O)=O)cc1,-8.4%
COCCNC(=O)[C@@H]1CCC[C@@H](NC(=O)c2ccc(OC)cc2)CN(C)C(=O)C1,-4.3%[70.6 µM]
Cc1cc(Cl)ccc1S(=O)(=O)N1CCCC(Cn2c(C)nc3cccnc32)C1 (centres undefined),?
Cc1csc(NC(=O)c2nc3c(o2)CCN(Cc2cc(F)ccc2F)CC3)n1,-12.9%[70.6 µM]

# (more compounds)
SMILES,hNpr1 antagonist
COCC(=O)N1CCc2nc(-c3ccccc3)nc(-c3ccc(OC)cc3)c2C1,-4.0%
Cc1nnn2c(C(=O)NCc3ccc(Cl)cc3)cccc12,0.0%[70.6 µM]
CN1C[C@@H](NC(=O)COc2ccccc2)C[C@H]1c1nc(-c2cccnc2)no1,1.1%[70.6 µM]
CC(C)(C)NC(=O)N1CCCCCCNC(=O)[C@@H]2C[C@@H](C(=O)N3CCc4ccccc4C3)C[C@@H]21,0.1%
COc1ccccc1/C=C/CN1CCCC(CCC(=O)Nc2ccccc2F)C1 (centres undefined),-1.2%
COc1cccc(-c2nc(-c3nnn4c3COC(c3ccccc3Cl)C4)no2)c1 (centres undefined),7.2%
CN1C(=O)CO[C@H]2CN(C(=O)C3CC3)C[C@H]21,-0.7%[70.6 µM]
COc1ccccc1-c1[nH]ncc1CN1CCCN(S(=O)(=O)c2ccccc2)CCC(=O)NCC1,-2.4%
OC(Cn1ccnc1-c1cc(F)ccc1-n1cccn1)c1ccccc1 (centres undefined),11.3%
CCC1=C(C(=O)OC)C(c2ccc(C)cc2C)N2C(CC(=O)N3CCCCC3C)=CSC2=N1 (centres undefined),-11.7%
Cc1ccc(CNC(=O)c2ccc(-c3ccc(N4CCCCC4)nc3)cc2)o1,-15.1%
Cc1nc(-c2cn(C3CCCN(C(=O)c4cccc(Cl)c4)C3)nn2)no1 (centres undefined),2.4%
CCOc1ccccc1NC(=O)c1cc2n(n1)CC(c1ccc(Cl)cc1)OC2 (centres undefined),3.0%
COc1cccc(-c2noc(-c3nc(-c4ccc5c(c4)OCO5)no3)n2)c1OC,-9.2%
COCC1CN(C2CCC2)CC12CCN(C(=O)C(C)C)CC2 (centres undefined),3.0%
COc1ccccc1-c1cc(-c2cccnc2)c2cncn2c1,-3.0%[70.6 µM]
O=C(NC1CCN(C(=O)N2CC3CC(C2)[C@H]2CCCC(=O)N2C3)CC1)C1CC=CC1 (some centres undefined),0.3%
CN(C)[C@@H]1CN(C(=O)c2ccccc2F)CC[C@]1(O)c1ccccc1,-2.5%
CCc1cnc(C)nc1N1CCC(Oc2ccccc2OC)(C(=O)O)CC1,2.3%
Cn1ncc(N2CCCC(CC(=O)NCc3ccccc3F)C2)cc1=O (centres undefined),1.4%
CC(NC(=O)c1ccc2c(c1)CC(=O)N2C)c1ccccc1 (centres undefined),-1.9%
OCC1(Cc2ccc(F)cc2F)CCCN(c2cnc3ccccc3n2)C1 (centres undefined),?
Cc1cnc(C(=O)NC2C[C@H]3CC[C@@H](C2)N3C(=O)c2ccc(OC(C)C)cc2)cn1 (some centres undefined),3.2%
N#Cc1cccc(NC(=O)N[C@H]2CO[C@H]3[C@@H]2OC[C@@H]3Nc2nccc(C3CCCC3)n2)c1,?
COC(=O)CNC(=O)N1CCN(C(=O)N2CC3CC(C2)[C@H]2CCCC(=O)N2C3)CC1 (some centres undefined),2.5%

# Copied from the entries so far (13 entries):
SMILES,hNpr1 antagonist
COc1ccccc1-c1[nH]ncc1CN1CCCN(S(=O)(=O)c2ccccc2)CCC(=O)NCC1,-2.4%
OC(Cn1ccnc1-c1cc(F)ccc1-n1cccn1)c1ccccc1 (centres undefined),11.3%
CCC1=C(C(=O)OC)C(c2ccc(C)cc2C)N2C(CC(=O)N3CCCCC3C)=CSC2=N1 (centres undefined),-11.7%
Cc1ccc(CNC(=O)c2ccc(-c3ccc(N4CCCCC4)nc3)cc2)o1,-15.1%
Cc1nc(-c2cn(C3CCCN(C(=O)c4cccc(Cl)c4)C3)nn2)no1 (centres undefined),2.4%
CCOc1ccccc1NC(=O)c1cc2n(n1)CC(c1ccc(Cl)cc1)OC2 (centres undefined),3.0%
COc1cccc(-c2noc(-c3nc(-c4ccc5c(c4)OCO5)no3)n2)c1OC,-9.2%
COCC1CN(C2CCC2)CC12CCN(C(=O)C(C)C)CC2 (centres undefined),3.0%
COc1ccccc1-c1cc(-c2cccnc2)c2cncn2c1,-3.0%[70.6 µM]
O=C(NC1CCN(C(=O)N2CC3CC(C2)[C@H]2CCCC(=O)N2C3)CC1)C1CC=CC1 (some centres undefined),0.3%
CN(C)[C@@H]1CN(C(=O)c2ccccc2F)CC[C@]1(O)c1ccccc1,-2.5%
CCc1cnc(C)nc1N1CCC(Oc2ccccc2OC)(C(=O)O)CC1,2.3%
Cn1ncc(N2CCCC(CC(=O)NCc3ccccc3F)C2)cc1=O (centres undefined),1.4%

# (continued)
SMILES,hNpr1 antagonist
CCc1cc(=O)n(CC(=O)NCc2ccc(OC)c(OC)c2)c(-c2ccccc2)n1,3.0%
O=C(O)c1ccc2c(c1)n(Cc1ccc(F)cc1)c(=O)c1ccnn12,-8.0%
O=C(C1CC1)N1CCN2C(=O)NC[C@H]2C1,4.8%[122 µM]
CCCNC(=O)C[C@@H]1CCN(S(=O)(=O)c2c(C)noc2C)C[C@@H]1CC,2.1%[70.6 µM]
COc1ccc(NC(=O)c2cnc3c(c2)N([S+](=O)([O-])c2cccnc2)CCC3)cc1OC,4.6%
O=C(c1nc2sccn2c1Br)N1CCC(n2cc[nH]c2=O)CC1,-5.6%
O=C(c1ccc2ncccc2c1)N1CCC2(CC1)CC(CO)N(C(=O)c1ccccc1)C2 (centres undefined),1.6%
COCCN(C)Cc1c(C(=O)N(C)Cc2ccccc2)nc2ccccn12,-0.6%
CCOc1ccccc1NC(=O)N1CC2CC(C1)[C@H]1CCCC(=O)N1C2 (some centres undefined),0.2%
NCCc1ccc(CN2C[C@@H]3CC[C@H](C2)N(Cc2ccccc2)C3)cc1,-11.5%
CC(C)n1c(CNC(=O)CC[C@H]2NC(=O)c3ccccc3NC2=O)nc2ccccc21,2.5%
Cc1cccc(CNC(=O)CCC2CCN(S(=O)(=O)c3cccc(F)c3)CC2)c1,-11.0%
O=C1NCCCCCN(C(=O)c2ccco2)[C@@H]2C[C@@H](C(=O)N3CCc4ccccc4C3)C[C@H]12,-13.9%
COc1ccc(-c2nnc3ccc(N4CCCC4)nn23)nc1,2.6%[70.6 µM]
Cc1ccccc1CN1CC[C@H](c2nc3ncccc3[nH]2)C1,-6.2%[70.6 µM]
O=c1[nH]nc2n1CCN(S(=O)(=O)c1ccc(F)cc1F)C2,3.4%
O=C(C1CC1)N1CCC(Cc2noc(-c3ccncc3)n2)C1 (centres undefined),-13.0%
COC[C@@H]1CN(Cc2ccc(OC)c(C)c2)C[C@H]1C(=O)N(C)C,-7.7%
Cc1noc([C@@H]2CN(C(=O)CCc3nc4ccccc4s3)C[C@H]2C(N)=O)n1,-5.0%
CCc1nc(-c2c3n(c(=O)n(CC(=O)Nc4c(C)cccc4CC)c2=O)CCCC3)no1,0.6%
Cc1ccc(C(=O)N2CCc3[nH]nc(C(=O)N(C)C)c3C2)cc1C,-4.1%
CCNC(=O)Cc1c[nH]c2ncc(-c3cccnc3OC)cc12,-14.9%[70.6 µM]
O=c1c2c3c(nn2ccn1Cc1cc(=O)n2ccccc2n1)CCCC3,-6.8%
CC(C(=O)O)C1CCOCC1 (centres undefined),-8.3%
C#CCNC(=O)CC[C@H]1CNC(=O)[C@@H]2[C@@H](CCN2Cc2ccc(N(C)C)cc2)N1C,-2.3%[70.6 µM]

# Next compounds
SMILES,hNpr1 antagonist
O=C(c1ccncc1)N1C[C@@H]2OCC(=O)N(Cc3cccnc3)[C@@H]2C1,6.8%[70.6 µM]
O=C(c1cccnc1)N1CCN(C(=O)c2nnn3c2COC(c2ccccc2)C3)CC1 (centres undefined),-0.3%
CO[C@@H]1CO[C@H]2[C@@H]1OC[C@@H]2n1nnnc1Sc1ncccn1,0.2%[70.6 µM]
O=C(O)c1cccc(CC2CCN(C(=O)CN3CCCCC3=O)C2)c1 (centres undefined),13.1%
c1ccc(CCc2noc(-c3ccc(N4CCCOCC4)nc3)n2)cc1,?
Cc1noc(C)c1[S+](=O)([O-])N(C)Cc1ccc(-c2ccccc2)cc1,-14.9%
Cc1n[nH]c(C)c1Cc1ccc(C(=O)N2CCc3c(nc4cc(-c5ccccc5)[nH]n4c3=O)C2)o1,-12.3%
COCc1cn([C@H]2CO[C@H]3[C@@H]2OC[C@H]3OC)nn1,7.1%[70.6 µM]
Cc1ccc(-c2nnc(CN3CCC4(CC3)CC(=O)N(CC(C)C)C4)o2)n1C,3.2%
O=C(O)C[C@@H]1CCN(C(=O)c2ccco2)C[C@@H]1CCN1CCN(c2cccc(C(F)(F)F)c2)CC1,3.2%
O=C1CCC(C(=O)N2CCN(c3ccc(Cl)cn3)CC2)CN1CCc1ccccn1 (centres undefined),4.3%
O=C(c1ccc(C(F)(F)F)cc1)N1CCC12Cc1ccccc1NC2=O (centres undefined),-0.3%
CC(C)Oc1ccc2c(NC(=O)CN3C(=O)CNC3=O)nn(CC(F)(F)F)c2c1,2.9%
COCc1cn(C[C@H]2C[C@@H](NC(=O)Cc3cccc(OC)c3)[C@H](O)[C@@H]2O)nn1,-8.0%[70.6 µM]
CCn1ncc(N2CCCC(CC(=O)Nc3ccc(C)c(F)c3)C2)cc1=O (centres undefined),-5.2%
CCn1ccc(C(=O)N2C[C@@H](COC)[C@H](c3nc(C)no3)C2)n1,5.1%
COCC1CN(C(=O)CCc2cccc(OC)c2)CC12CCOCC2 (centres undefined),-2.6%
COC(=O)CNC(=O)c1nc(-c2ccc(F)cc2)c2cnccn12,0.0%[70.6 µM]
Cc1ccc(CNC(=O)N[C@@H]2CN(Cc3cccnc3)C[C@H]2CN(C)C)cc1,4.3%
CNC(=O)[C@@H]1CN(S(=O)(=O)c2ccc(C#N)cc2)C[C@H]1COC,-2.7%
CN1CCCCCCN(C(=O)CCCc2ccccc2)[C@H]2CCC[C@H]2C1=O,-0.3%
CCCc1noc(-c2ccn3c(CNC(=O)c4ccccc4Cl)nnc3c2)n1,-5.5%
O=C(NCc1nnc2ccccn12)C1NCCc2[nH]cnc21 (centres undefined),6.6%
CNC(=O)[C@@H]1CN(C(=O)COc2ccc(F)cc2)C[C@H]1CO,14.1%
COCCn1c(C)cnc1CC1CCN(C(C)=O)CC1,-2.3%

# Additional results.
SMILES,hNpr1 antagonist
COCCN1C(=O)[C@H]2CN(Cc3ccc(OC(F)(F)F)cc3)C[C@H]2C1=O,-19.4%
Cc1ccsc1C(=O)N1CCC(c2noc(-c3cnccn3)n2)C1 (centres undefined),1.9%
Fc1ccc(-c2cnc([C@@H]3COCCN3Cc3ncc[nH]3)[nH]2)cc1,0.3%[70.6 µM]
Cc1ccc(S(=O)(=O)N2CCCN(C)c3ccccc32)c(C)c1,2.5%
CN(Cc1ccccc1)Cc1nc2c(n1Cc1ccccc1)C(=O)N(CC1CC1)CCN2,-1.2%[70.6 µM]
c1csc(-c2nc3nccc(-c4cc5ccccc5o4)n3n2)c1,4.4%
CC(c1ccc(-c2ccc(N(C)C)nn2)cc1)N(C)C (centres undefined),?
CCCN(Cc1nccn1C)C(=O)c1ccccc1C1CCNC1 (centres undefined),-3.2%
Cc1oc(-c2ccc(OC(C)C)cc2)nc1Cn1ccn2nc3c(c2c1=O)CCCC3,1.5%
COc1ccccc1-c1nc(C(=O)NCc2cccs2)n2ccncc12,15.0%
